Screens as filed in PubChem BioAssay.
Six1-Eya2 blk – qHTS Assay for Inhibitors of the Six1/Eya2 Interaction | Homeobox protein SIX1 (Homo sapiens) + Protein phosphatase EYA2 (Homo sapiens), … | AlphaScreen GST-Six1/His-Eya2 binding, biochemical; hits give low values; control for the full effect not named in the record | activity change, % (no concentration beside the values) | 360,000 compounds, 0.56% hits | AID 651725, 2012; in the data active = activity change below about -65%; inconclusive = about -30% to -65%; inactive = above about -30%; further: on the % scale 0 is the no-effect control and ±100 the full control effect
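AlphaScreen with GST-Six1 and His-Eya2 (5X mix: 250 nM and 500 nM), glutathione donor and nickel acceptor beads; buffer 50 mM Tris pH 8.0, 300 mM NaCl, 1 mM TCEP; 1 h at 37 C in the dark.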
D2 PAM – Beta-Arrestin HTS for Positive Allosteric Modulators of the Human D2 Dopamine Receptor: Potentiators. D(2) dopamine receptor (Homo sapiens), P14416. potentiation, % (test concentration not listed). DiscoveRx D2 beta-arrestin cells, luminescence, 90 min; 100% = 57 uM dopamine signal. 360,000 compounds, 0.23% hits; active = potentiation of 50% or more; inconclusive = 30% to 50%; inactive = 30% or less;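 further: compound concentration not given in the record; tested on top of an EC20 dose of dopamine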
Target sequence (P14416 whole entry, looked up): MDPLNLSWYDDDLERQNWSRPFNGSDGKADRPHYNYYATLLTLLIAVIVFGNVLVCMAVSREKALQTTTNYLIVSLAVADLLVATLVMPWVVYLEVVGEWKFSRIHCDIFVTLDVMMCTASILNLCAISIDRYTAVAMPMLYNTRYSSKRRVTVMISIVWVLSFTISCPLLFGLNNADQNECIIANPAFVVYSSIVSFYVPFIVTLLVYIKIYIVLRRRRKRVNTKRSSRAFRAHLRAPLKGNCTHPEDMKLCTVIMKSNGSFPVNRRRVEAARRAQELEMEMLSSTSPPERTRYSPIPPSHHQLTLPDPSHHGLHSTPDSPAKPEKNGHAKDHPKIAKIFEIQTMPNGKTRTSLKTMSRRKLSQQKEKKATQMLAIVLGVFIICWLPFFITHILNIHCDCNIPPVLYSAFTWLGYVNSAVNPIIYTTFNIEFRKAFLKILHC
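PathHunter beta-arrestin assay in DiscoveRx D2 cells. Compounds were added with an EC20 of dopamine (50 nM final) for 90 min at 37 deg C. Luminescence was read 1 h after detection reagent, with 57 uM dopamine as the EC100 control.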
TRPML1 ag – qHTS for Agonists of the Human Mucolipin Transient Receptor Potential 1 (TRPML1). activation, % (test concentration not listed). TRPML1-expressing cells, Ca2+ dye fluorescence, FDSS; host cell line not named in the record; reference of the full effect not given here. 410,000 compounds, 0.12% hits. Mucolipin-1 (Homo sapiens), Q9GZU1; in the data active = activation above about 50%; inconclusive = about 30% to 50%; inactive = below about 30%; further: 0% is about no effect; the text of the record puts the active cut at 80%
Target sequence (Q9GZU1 whole entry, looked up): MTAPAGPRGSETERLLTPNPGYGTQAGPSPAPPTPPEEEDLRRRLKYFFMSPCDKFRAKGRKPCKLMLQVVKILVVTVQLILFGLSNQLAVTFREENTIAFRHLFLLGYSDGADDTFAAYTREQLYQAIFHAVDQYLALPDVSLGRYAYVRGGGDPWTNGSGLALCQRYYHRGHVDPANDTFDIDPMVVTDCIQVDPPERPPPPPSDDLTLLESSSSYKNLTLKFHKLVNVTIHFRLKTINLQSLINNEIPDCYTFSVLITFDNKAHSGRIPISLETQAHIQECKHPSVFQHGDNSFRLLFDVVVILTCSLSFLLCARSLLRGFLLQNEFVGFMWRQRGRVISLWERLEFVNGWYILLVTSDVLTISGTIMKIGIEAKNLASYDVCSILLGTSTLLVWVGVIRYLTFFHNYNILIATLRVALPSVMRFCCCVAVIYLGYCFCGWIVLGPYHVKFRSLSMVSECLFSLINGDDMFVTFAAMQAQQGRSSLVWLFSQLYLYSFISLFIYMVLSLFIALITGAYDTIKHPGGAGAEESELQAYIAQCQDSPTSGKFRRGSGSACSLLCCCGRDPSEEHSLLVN
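Tetracycline-induced TRPML1-DL cells are seeded and incubated overnight before loading with a no-wash Ca2+ dye and quencher. Agonist activity is taken from the 110 s fluorescence read following compound pin-transfer on an FDSS, before EC80 54-4 challenge.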
CtBP-E1A inh – qHTS Assay for Inhibitors of the CtBP/E1A Interaction; 340,000 compounds, 0.49% hits; AID 651724, 2012; activity change, % (concentration not given with the values); AlphaScreen GST-E1A/His-CtBP binding, 1536-well; hits give low values; control for the full effect not named in the record; CtBP / adenovirus E1A interaction (AlphaScreen); in the data active means activity change below about -65%; inconclusive means about -30% to -65%; inactive means above about -30%; further: on the % scale 0 is the no-effect control and ±100 the full control effect
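Steps: dispense buffer (Tris pH 8.0, NaCl 300 mM, TCEP 1 mM, BSA, Tween 20); add 5X protein mix (GST-E1A, His-CtBP, 125 nM each); pin 23 nL compound; 2 h at 37 °C, dark; add 5X beads (50 ug/mL); 1 h; read.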
D2 ag – Beta-Arrestin HTS for Positive Allosteric Modulators of the Human D2 Dopamine Receptor: Agonists; 360,000 compounds, 0.084% hits; D(2) dopamine receptor (Homo sapiens), P14416; activation, % (no concentration beside the values); DiscoveRx PathHunter D2 beta-arrestin, luminescence, 90 min; 100% = 57 uM dopamine signal; in the data active = activation above about 40%; inconclusive = about 15% to 40%; inactive = below about 15%; further: compound concentration not given in the record; the text of the record calls up to 30% inactive
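DiscoveRx PathHunter D2 beta-arrestin cells (2,100/well) attached overnight, then compound-stimulated 90 min at 37 C in HBSS/10 mM HEPES/0.1% Tween-20 buffer; beta-galactosidase complementation read by luminescence after 1 h at ambient temperature. Dopamine 57 uM final (EC100) as control.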
PINK1 expr mod – A Quantitative High throughput Screen to Identify Chemical Modulators of PINK1 Expression; PINK1 immunofluorescence, high-content cytometry, 24 h; Potency, µM (highest dose often 76.6 µM), for the others: top-dose activation (PINK1 increase), most hits filed as activators; 410,000 compounds, 0.2% hits; active = well fitted activation curve with a large enough effect; inconclusive = small, poorly fitted or top-dose-only effect; inactive = flat fitted curve, though single readings scatter; cell line not stated here;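 further: potency means the concentration at half of the fitted maximal effect; % of control where 0% means no effect; nearly all actives have a fitted effect of over 65% in size; a mitochondrial uncoupler was the plate control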
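PINK1 protein level read as immunofluorescence by microplate cytometer in a fixed, stained stable cell line after 24 h exposure to five compound concentrations, with CCCP as control.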
* = called active by the depositor; ? = inconclusive; . = no result given; & = joins results of further samples; [ ] = remark or other dose. This is a subset; rates above refer to the full screens.

Structure | Six1-Eya2 blk | PINK1 expr mod | CtBP-E1A inh | D2 ag | D2 PAM | TRPML1 ag
O=C(/C=C/c1ccc(F)cc1)NC(=S)N1C[C@H]2C[C@H](C1)c1cccc(=O)n1C2 | 3 | 0.5% | 2 | -8.2 | -35 | .
CN1/C(=C\C=Nc2ccccc2)C(C)(C)c2ccccc21 | 4 | -3.4% | -1 | . | -8 | 1.8
CN(C)c1nc(OCCNC(=O)COc2ccc(Cl)cc2Cl)nc(N2CCCCC2)n1 | 5 | ? | 10 | -0.6 | 2 | 2.4
CCOc1ccccc1CN1CCCC(C(=O)c2cc(F)ccc2F)C1 (stereo unspecified) | 2 | 9.5% | 0 | 3.6 | -24 | -0.6
O=C1NC(=S)N(c2ccccc2)C(=O)C1C(c1ccncc1)C1C(=O)NC(=S)N(c2ccccc2)C1=O (stereo unspecified) | -8 | 0.7% | -7 | -5.9 | -11 | -1.9
CCc1ccc2c(CN3CC=C(c4ccccc4)CC3)cc(=O)oc2c1 | 2 | 1.2% | 5 | -0.8 | -4 | 0.0
Cc1cccc(-n2c(O)c(/C=C/C=Nc3ccccc3)c(=O)[nH]c2=O)c1 | 5 | 6.8% | 0 | -4.1 | 0 | 16
Cc1ccccc1-n1c(O)c(/C=N/Nc2nc3c(c(=O)n(C)c(=O)n3C)n2C)c(=O)[nH]c1=S | -68* | 0.2% | -78* | 7.6 | 14 | 1.8
O=c1[nH]c(=O)n(CCC2=CCCCC2)c(O)c1C=NC1CCN(Cc2ccccc2)CC1 | -5 | 13% | -1 | -1.5 | -28 | 0.2
O=C(c1cccn2c(=O)c3cc(Br)ccc3nc12)N1CCC2(CC1)OCCO2 | 3 | 29%[38.3 µM] | 4 | -1.5 | -6 | 1.3
Cc1c2cnn(CC(=O)N3CCC4(CC3)OCCO4)c(=O)c2c(C)n1Cc1ccc(F)cc1 | -15 | 6.2% | -13 | -4.8 | 7 | -1.0
Cc1cc(OCC(=O)NCC(O)c2ccccc2)c2c3c(c(=O)oc2c1)CCCC3 (stereo unspecified) | -3 | 5.3% | -12 | -1.2 | 2 | 0.5
Cc1ccc(-n2c(O)c(C=Nc3ccc(S(=O)(=O)N(C)C)cc3)c(=O)[nH]c2=O)cc1 | 0 | -0.6% | 0 | -1.9 | 4 | -0.5
CC(=NCc1cccnc1)c1c(O)n(-c2ccccc2C)c(=O)[nH]c1=O | 0 | ? | 10 | -0.7 | -1 | 0.5
Cc1nc2ccccc2c(=O)n1-c1cccnc1 | -8 | -2.9% | ? | 0.0 | 1 | 0.0
NC(N)=Nc1ccc2[nH]c3c(c2c1)C[C@@]1(O)[C@H]2Cc4ccc(O)c5c4[C@@]1(CCN2CC1CC1)[C@H]3O5 | -7 | 0.0%&-1.0% | -22 | -7.9 | -33 | -0.6&1.0
Cc1ccc2c(c1)N(N=O)CCC2 | 10 | ? | 1 | 2.7 | 10 | 0.6
COC(=O)C1=C(c2ccc3ccccc3c2)C[C@@H]2CC[C@H]1N2C(=O)N1CCCC1 | 4 | 5.9% | . | -1.1 | -12 | 0.7
O=c1[nH]c(=S)n(-c2ccccc2Cl)c(O)c1C=NCCN1CCNCC1 | -15 | 1.3% | 4 | -7.7 | -8 | .
Cc1c(C=O)c2ccccc2n1Cc1ccc(F)cc1 | 15 | -1.1% | . | -4.5 | 1 | 1.8
CCCCn1c(=O)c(C(=O)NC(C)c2ccccc2)c(O)c2ccccc21 (stereo unspecified) | 4 | ? | 7 | -3.0 | -1 | 1.0
CC(=O)c1cccc(OCC(O)CN2CC=C(c3ccccc3)CC2)c1 (stereo unspecified) | -2 | 4.1%[38.3 µM] | 1 | 42* | 51* | -0.2
C=CCn1c(O)c(C(C)=NCCN2CCOCC2)c(=O)[nH]c1=O | 8 | 1.1% | 1 | 1.2 | -3 | 0.0
CCc1c(-c2ccccc2)nc2ccccc2c1C(=O)N1CCC2(CC1)OCCO2 | -3 | -0.3% | -1 | -3.5 | -9 | -0.1
O=P(O)(Oc1ccccc1)c1ccccc1 | 1 | -1.7% | 13 | -4.5 | -2 | -0.3

3 entries already listed, ordered by formula weight, descending.
Structure | Six1-Eya2 blk | PINK1 expr mod | CtBP-E1A inh | D2 ag | D2 PAM | TRPML1 ag
CCCCn1c(=O)c(C(=O)NC(C)c2ccccc2)c(O)c2ccccc21 (stereo unspecified) | 4 | ? | 7 | -3.0 | -1 | 1.0
CCc1ccc2c(CN3CC=C(c4ccccc4)CC3)cc(=O)oc2c1 | 2 | 1.2% | 5 | -0.8 | -4 | 0.0
Cc1c(C=O)c2ccccc2n1Cc1ccc(F)cc1 | 15 | -1.1% | . | -4.5 | 1 | 1.8

Random excerpt: 2 records from the list
Structure | Six1-Eya2 blk | PINK1 expr mod | CtBP-E1A inh | D2 ag | D2 PAM | TRPML1 ag
COC(=O)C1=C(c2ccc3ccccc3c2)C[C@@H]2CC[C@H]1N2C(=O)N1CCCC1 | 4 | 5.9% | . | -1.1 | -12 | 0.7
Cc1c(C=O)c2ccccc2n1Cc1ccc(F)cc1 | 15 | -1.1% | . | -4.5 | 1 | 1.8

(next part)
Structure | Six1-Eya2 blk | PINK1 expr mod | CtBP-E1A inh | D2 ag | D2 PAM | TRPML1 ag
S=C1NC2(CCCCC2)NC12CCCCC2 | -1 | 1.9% | . | -2.7 | 2 | -0.6
Cc1nn(Cc2ccccc2)c(C)c1C(=O)OCC(=O)Nc1ccccc1SCC#N | 6 | -3.6% | -2 | 0.4 | -6 | 2.5
CCC(C)n1c(O)c(C=NCc2cccnc2)c(=O)[nH]c1=S (stereo unspecified) | 9 | 0.9% | 0 | -0.5 | -2 | 1.7
CCCN1CCCC(C(=O)c2cc(C)c(OC)c(C)c2)C1 (stereo unspecified) | 2 | 0.4% | -9 | -1.6 | -13 | 0.5
CC1([N+](=O)[O-])COP(=O)(Nc2cccc(Cl)c2)OC1 (stereo unspecified) | 7 | -3.6% | 6 | -3.6 | -13 | -0.1
COCCN(C(=O)COC(=O)Cc1ccccc1)c1c(N)n(Cc2ccccc2)c(=O)[nH]c1=O | -3 | -2.9% | 5 | -5.8 | 2 | 1.1
CN(C)c1ccc(/C=C2/C(=N\O)C3CCN2CC3)cc1 | -7 | -1.1% | -6 | 0.0 | -5 | -0.3
[N-]=[N+]=NCc1cn2cccnc2n1 | 14 | -0.3% | -10 | 5.8 | -2 | 0.5
Cc1cc(NC(=O)CCC(=O)N2CCC3(CC2)OCCO3)no1 | 0 | 2.5%[38.3 µM] | -7 | -1.2 | 7 | -0.2
CCOP(=O)(OCC)C(C)(C)NC(=O)C(Cl)(Cl)Cl | 19 | -2.9% | 17 | -3.6 | -10 | 0.1
COc1ccc(CCCc2nnc(SCC(=O)Nc3ccc(C)c(C)c3)o2)cc1 | 1 | ? | -23 | 0.8 | -5 | -0.4&3.6
CCC(C)OC(=O)c1c(N)n(Cc2cccs2)c2nc3ccccc3nc12 (stereo unspecified) | 20 | 4.5% | 19 | -3.5 | -15 | 2.0
CC(C)(C)NC(=O)NC(=O)CN1CC=C(c2ccccc2)CC1 | -4 | 0.5% | . | -2.5 | -2 | 2.0
COc1cccc(OCc2cc(C(=O)N3C[C@H]4C[C@@H](C3)c3cccc(=O)n3C4)no2)c1 | 4 | -0.4% | -14 | -0.4 | -1 | 0.2
O=C(CCCOc1ccc(Cl)cc1Cl)N1CCC2(CC1)OCCO2 | -12 | ? | -6 | 0.0 | -2 | 0.1
CCN(CC)c1ccc(/C=C2\C(=O)NC(=O)N(Cc3ccco3)C2=O)cc1 | 3 | 2.5% | 3 | 3.4 | 13 | -0.5
CC12CCC3C(CC=C4CC(O)CCC43C)C1CC(=CN1CCOCC1)C2=O (stereo unspecified) | 5 | 6.0% | 3 | 0.6 | -8 | -0.4
Nc1ccc(CC2=NCCN2)cc1 | -2 | 1.3% | 8 | 0.7 | -5 | 0.3
CC(=O)N1N=C2C3CCN(CC3)C2C1c1ccc(C)cc1 (stereo unspecified) | 11 | -0.5% | 7 | -5.3 | -3 | 0.2
COc1cc(OC)c(OC)cc1/C=C1/C(=O)NC(=O)N(Cc2ccccc2)C1=O | -5 | 0.2% | 0 | 3.9 | -6 | -0.3
Cn1cc(C(=O)OCC(=O)NC2CCCC2)c2ccccc21 | -2 | 1.9% | -1 | -5.4 | -19 | -0.5
COC(=O)C1=C(c2ccc(F)cc2OCc2ccccc2)C[C@@H]2CC[C@H]1N2C(=O)N1CCC(O)CC1 | 2 | 4.4% | 3 | 2.4 | -1 | -0.8
CCOC(=O)C1CCN(/C=C2\C(=O)NC(=S)N(CC)C2=O)CC1 | 19 | -1.8% | . | -4.9 | -6 | 0.1
COc1ccc(C2NCc3ccc4c(c3-n3cccc32)OCO4)cc1O (stereo unspecified) | -22 | 5.1% | -18 | -11 | -18 | 0.1
CN1C(=O)C(=Cc2cn(CC(=O)N3CCCC3)c3ccccc23)C(=O)N(C)C1=O | 9 | 0.5% | 7 | -3.3 | -5 | 0.1

(cont.)
Structure | Six1-Eya2 blk | PINK1 expr mod | CtBP-E1A inh | D2 ag | D2 PAM | TRPML1 ag
COC(=O)C1=C(c2ccccc2OCc2ccccc2)C[C@@H]2CC[C@H]1N2C(=O)NC1CCN(Cc2ccccc2)CC1 | -5 | -2.2% | -29 | 4.6 | -24 | -0.3
CC(C)C12CN3CCN(CC(C3)C1O)C2 (stereo unspecified) | 2 | 7.0%[38.3 µM] | 1 | -3.4 | -7 | -0.2
CC(=O)OCC12CC(OC(=O)CC(C)C)C(C)=CC1OC1C(O)C(OC(C)=O)C2(C)C12CO2 (stereo unspecified) | 1 | -2.0% | 2 | -7.1 | -21 | 0.8
CC(=NCCc1c[nH]c2ccccc12)c1c(O)n(Cc2ccccc2)c(=O)[nH]c1=O | -7 | 1.3% | 0 | 3.2 | -1 | 1.7
COc1ccc(CCNC2CCCCC2)cc1OC | 4 | -0.5% | -8 | -5.3 | 0 | 0.0
CC(N)Cc1c[nH]c2c1ccc1ccccc12 (stereo unspecified) | -20 | 12% | -28 | -3.5 | -6 | 0.5
COC(=O)C1=C(c2ccc(OC)c(OC)c2)C[C@@H]2CC[C@H]1N2C(=O)NCCOc1ccccc1Cl | 0 | 0.5% | 3 | 0.2 | -1 | 0.8
O=S(=O)(c1ccccc1)N1CN2CCN(C2)C1 | 6 | 0.3% | 9 | -5.3 | -11 | 0.4
Cc1cccn2c(=O)c3c(nc12)N1CCCCC1C1(C3)C(=O)N(C)C(=O)N(C)C1=O (stereo unspecified) | 0 | 0.8% | 7 | -3.2 | -5 | 0.1
CCOP(=O)(OCC)C1(O)C(=O)Nc2ccccc21 (stereo unspecified) | 7 | -0.4% | -3 | 3.1 | -7 | 1.1
O=[N+]([O-])c1ccc(N2CCOCC2)c2cccnc12 | 0 | -1.5% | . | -3.7 | -21 | 2.9
